AF4-AF9 inh – blocks AF4 peptide binding to human AF9; actives 0.47% (n = 350,000); P42568; inhibition, % at 10 µM; AlphaScreen, biotin-AF4 peptide binding to FLAG-AF9; AID 651704;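 active = every replicate reaching a set inhibition limit, whatever the replicate mean, cut at about 25% in these data; inconclusive = mean inhibition reaches that limit but some replicates miss it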;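 also: 0% = plate neutral control median and 100% = total signal loss; the record names both 10 and 1 µM as test concentration; the first replicate is given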
Target sequence (P42568 whole entry, looked up): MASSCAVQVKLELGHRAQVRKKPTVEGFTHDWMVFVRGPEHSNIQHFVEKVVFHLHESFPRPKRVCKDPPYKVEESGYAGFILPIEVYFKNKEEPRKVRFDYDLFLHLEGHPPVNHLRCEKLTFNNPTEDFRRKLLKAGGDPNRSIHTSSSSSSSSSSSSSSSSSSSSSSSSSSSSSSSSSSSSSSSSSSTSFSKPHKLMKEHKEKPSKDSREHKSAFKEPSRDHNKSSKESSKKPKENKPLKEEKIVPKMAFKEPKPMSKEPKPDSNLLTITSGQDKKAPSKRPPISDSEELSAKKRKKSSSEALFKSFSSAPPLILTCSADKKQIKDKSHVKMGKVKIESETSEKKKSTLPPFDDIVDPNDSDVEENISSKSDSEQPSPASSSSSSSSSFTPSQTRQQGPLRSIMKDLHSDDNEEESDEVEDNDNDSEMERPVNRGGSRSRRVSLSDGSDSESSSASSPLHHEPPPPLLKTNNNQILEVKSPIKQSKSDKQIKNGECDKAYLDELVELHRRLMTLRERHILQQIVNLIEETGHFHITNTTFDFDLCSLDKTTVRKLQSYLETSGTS
Ecoli rRNA inh – inhibitors of bacterial rRNA selective over humanized ribosomes | E. coli WT GFP vs humanized-ribosome RFP mutants, fluorescence, 24 h; active compounds read low; DMSO median 0, no signal -100 | GFP signal change (wild-type ribosome), % (no concentration beside the values) | actives 1.6% (n = 350,000) | AID 720706;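 active = significant combined selectivity score with lowered wild-type GFP, culture density cut under 30%, mutant RFP and density less affected; inactive = any of these conditions unmet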; also: one replicate is shown; some compounds called inactive have numbers as strong as hits
E coli growth – inhibitors of Escherichia coli growth; OD600 absorbance (no concentration beside the values); AID 1053175; actives 0.21% (n = 330,000); OD600, 23 h; active compounds read low;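 active = OD600 absorbance below the run mean of sample wells minus 3.6 SD, in any replicate, cut at about 0.56 in these data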;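 also: stock transfer was 300 nL into about 60 µL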
FGF22 binding – binders of recombinant human FGF22 by thermal shift | calls only at 9.99 µM | actives 1.5% (n = 340,000) | AID 651658 | SYPRO orange fluorescence; percent of sucrose octasulfate shift, DMSO zero | Q9HCT0;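 active = melting point raised past a set limit in the mean and every replicate; inconclusive = no clear call; three in four hits are not shown here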
ALR inh – human ALR oxidase inhibition via reduced H2O2; P55789; purified ALR, DTT oxidation, H2O2 HRP-luminol luminescence; inhibition, % (concentration not given with the values); actives 3.8% (n = 290,000);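 active = mean and each replicate at 75% or more; inconclusive = only one of the two met; inactive = neither met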;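 also: stock transfer was 7.5 nL into about 7.5 µL; 0% = neutral wells and 100% = wells with inactivated enzyme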
Vif TR-FRET – HIV-1 Vif–A3G interaction blockers – biochemical, TR-FRET, GST-Vif 1-94, biotin-A3G peptide, dose response retest, primary screen (AID 1117319); inhibition, %; hits with a dose series show IC50 in µM; actives 0.57% (n = 260,000); TR-FRET GST-Vif / biotin-A3G peptide binding; higher % means a stronger effect; test concentration not given here; strong numbers were not always called active;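 active = above the screen mean plus three standard deviations and confirmed in dose response; inconclusive = results disagree or hit not tested in dose response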;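 also: Vif residues 1-94 fused to GST binding biotinylated APOBEC3G peptide 110-148; 0% = full assay without inhibitor and 100% = GST in place of GST-Vif; retest series ran down from 100 µM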
HNF4A DNA FP – change in binding of human HNF4 alpha to DNA. HNF4a-FITC DNA binding, fluorescence polarization, 1 h. actives 0.3% (n = 360,000). P41235. AID 1224865. activity change, % at 10 µM; in the data active = activity change above about 30%, passing the limit was not always enough;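 also: controls were the assay level and a saturating level of protein; the project sought stronger binding though the title names inhibitors; some compounds called inactive have numbers as strong as hits; positive values seem to mean higher polarization but the record does not say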
Target sequence (P41235 whole entry, looked up): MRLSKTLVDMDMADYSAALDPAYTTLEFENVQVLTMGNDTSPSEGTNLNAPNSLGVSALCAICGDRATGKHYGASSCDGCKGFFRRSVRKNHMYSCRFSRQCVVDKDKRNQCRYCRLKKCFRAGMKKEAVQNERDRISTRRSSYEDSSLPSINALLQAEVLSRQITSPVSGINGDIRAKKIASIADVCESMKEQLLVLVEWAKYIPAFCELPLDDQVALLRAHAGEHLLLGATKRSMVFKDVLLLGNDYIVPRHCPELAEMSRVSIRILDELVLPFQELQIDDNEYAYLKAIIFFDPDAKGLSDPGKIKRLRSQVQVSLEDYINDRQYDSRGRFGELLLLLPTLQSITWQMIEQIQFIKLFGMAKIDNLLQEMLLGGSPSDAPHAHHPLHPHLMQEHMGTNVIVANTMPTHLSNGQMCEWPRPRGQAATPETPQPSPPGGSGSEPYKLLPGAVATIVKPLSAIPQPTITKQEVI
Ecoli rRNA inh OD600 – recorded beside Ecoli rRNA inh, whose call it bears; OD600 change, %; measured here: OD600 growth;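 optical density of the mix in the first replicate; 0 = DMSO median and -100 = no signal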
Ecoli rRNA inh RFP – second read-out of Ecoli rRNA inh, no call of its own (marks repeat the call); RFP signal change, %; measured here: RFP humanized mutant strains;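 first replicate; 0 = DMSO median and -100 = no signal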
An asterisk follows results filed as active; i = inactive; ? = inconclusive; . = not tested or not shown. The list is partial (hit frequency here may not be typical).

Start of the listing, in advance, two compounds:
SMILES	AF4-AF9 inh	Ecoli rRNA inh	Ecoli rRNA inh OD600	Ecoli rRNA inh RFP	E coli growth	FGF22 binding	ALR inh	Vif TR-FRET	HNF4A DNA FP
CN(c1ccc(C(=O)NCCSCc2ccco2)cc1)S(C)(=O)=O	.	.	.	.	0.767	.	-11.6	-0.3%	0.4
c1ccc2c(c1)[nH]c1nc(SCCN3CCOCC3)nnc12	.	.	.	.	0.625	.	9.7	0.1%	0.7

Main list, from the first entry:
SMILES	AF4-AF9 inh	Ecoli rRNA inh	Ecoli rRNA inh OD600	Ecoli rRNA inh RFP	E coli growth	FGF22 binding	ALR inh	Vif TR-FRET	HNF4A DNA FP
CN(c1ccc(C(=O)NCCSCc2ccco2)cc1)S(C)(=O)=O	.	.	.	.	0.767	.	-11.6	-0.3%	0.4
c1ccc2c(c1)[nH]c1nc(SCCN3CCOCC3)nnc12	.	.	.	.	0.625	.	9.7	0.1%	0.7
O=C(NN=C1CCCC1)c1sc2ccccc2c1Cl	1.6	-1.4	7.8	-0.5	0.661	i	42.2	0.3%	-1.1
O=C(c1ccc(F)cc1)c1cc2ccccc2o1	.	.	.	.	0.65	.	-3.2	-9.4%	-2.3
COc1ccc(N(C(=O)c2ccco2)C(C(=O)NC2CCCC2)c2cccs2)cc1 (stereo not drawn)	-1.3	-4.2	-7.3	0.1	0.685	i	-3.2	.	-1.4
CCOc1ccccc1Nc1ncnc2c1cnn2-c1ccccc1	-18.7	-7.1	-22.8	-5.7	0.723	i	.	.	1.6
O=C(C[C@@H]1CC[C@H]2[C@@H](COC[C@@H](O)CN2CC2CCCCC2)O1)NCc1ccc(F)cc1	1.1	-26.7	-59.6	5.0	.	i	.	.	.
CN1CCN(C(=O)C[C@@H]2C[C@@H]3c4cc(NC(=O)C5CCC5)ccc4O[C@@H]3[C@@H](CO)O2)CC1	-2.8	6.9	8.2	0.8	.	i	.	.	.
CC(=O)Nc1ccc(C(=O)NNC(=O)c2csc(N3CCOCC3)n2)cc1	0.4	6.8	15.1	1.3	.	i	.	.	0.2
COc1ccc(C#Cc2ccc([C@H]3[C@H]4CN(S(=O)(=O)c5cn(C)cn5)CCCCN4[C@H]3CO)cc2)cc1	-3.4	8.0	-3.1	12.2	.	i	.	.	.
Cc1ccc(C(=O)O)cc1NC(=O)Nc1cccc2ccccc12	-1.9	4.5	3.5	0.9	0.695	i	-15.1	.	-0.7
CCS(=O)(=O)c1c([N+](=O)[O-])ncn1C	-2.1	.	.	.	0.643	i	24.2	16.6%	2.0
COc1ccc(NC(=O)CCS(=O)(=O)c2cc3c(cc2Cl)NC(=O)CO3)cc1OC	-2.9	3.0	13.3	1.6	0.689	i	-2.8	.	2.7
CSc1nc(NS(=O)(=O)c2cc(C)c(Cl)cc2Cl)nn1C	-0.1	-0.9	2.4	0.2	0.686	i	-2.8	7.8%	-2.5
O=C(Nc1ccc(F)cc1)N[C@H]1CC[C@H](CCNS(=O)(=O)c2cccc(Cl)c2)O[C@H]1CO	-14.4	-7.2	-9.9	-2.8	.	i	.	.	.
Cc1ccc(CNC(=O)C2CCC(=O)N(CCc3cccc(F)c3)C2)cc1 (stereo not drawn)	1.8	-9.8	-10.9	-2.3	0.673	i	-0.5	-9.7%	-3.1
COc1ccccc1N1CCN(S(=O)(=O)CCNC(=O)c2cc(=O)c3ccccc3o2)CC1	0.3	-0.5	-0.6	-2.7	0.652	i	6.9	.	4.4
Cn1c(=O)n(C)c2cc(/C=N/N=C3/NC(=O)C(CC(=O)O)S3)ccc21 (stereo not drawn)	-2.3	14.4	8.1	0.8	.	i	-18.1	11.3%	-0.3
Cc1ccccc1N=C(NOCc1ccc(Cl)cc1Cl)c1nonc1N	.	.	.	.	0.716	.	-4.3	-2.7%	-2.4
CN(C)CCNC(=O)C(=O)NCC(c1ccc2c(c1)OCO2)N1CCN(c2ccc(F)cc2)CC1 (stereo not drawn)	4.8	8.3	12.1	1.2	0.678	i	98.8*	.	5.7
C[C@@H]1CN([C@@H](C)CO)C(=O)Cc2cc(N(C)C)ccc2O[C@@H]1CN(C)C(=O)Nc1ccc2c(c1)OCO2	0.4	2.1	5.7	0.1	.	i	.	.	.
Cc1noc(C)c1S(=O)(=O)Nc1ccc2c(c1)C(=O)N([C@@H](C)CO)C[C@@H](C)[C@H](CN(C)C(=O)C1CCCCC1)OCCCC[C@@H](C)O2	-1.6	-0.6	-6.6	-0.3	.	i	.	.	.
CCNC(=S)N(Cc1ccco1)Cc1cc2cc(OCC)ccc2[nH]c1=O	1.4	-15.3	-15.4	5.4	0.598	i	4.1	0.9%	-1.8
CCOCCCNC(=O)c1ccc(N(C)S(=O)(=O)c2ccc(OC)cc2)cc1	.	.	.	.	0.732	.	-2.8	?	0.4
COc1ccc(CN(C)C[C@@H]2Oc3ccc(NC(=O)Nc4cccc5ccccc45)cc3CC(=O)N([C@H](C)CO)C[C@@H]2C)cc1	-1.8	1.0	-7.9	1.6	.	i	.	.	.
SMILES	AF4-AF9 inh	Ecoli rRNA inh	Ecoli rRNA inh OD600	Ecoli rRNA inh RFP	E coli growth	FGF22 binding	ALR inh	Vif TR-FRET	HNF4A DNA FP
O=C(c1ccco1)N1CCN(S(=O)(=O)c2ccc3c(c2)CCN3C(=O)C2CC2)CC1	.	.	.	.	0.732	.	-0.1	21.9%	-1.4
Cc1ccc(NC(=O)CS(=O)CC(=O)NCCCN(C)c2ccccc2)cc1 (stereo not drawn)	.	.	.	.	0.686	.	?	?	0.9
COc1ccccc1CNc1ccc(N2CCOCC2)c(C(=O)O)c1	.	.	.	.	0.721	.	98.7*	21.2%	-1.8
CCOc1ccc(S(=O)(=O)N2CCCC(C(=O)N3CCOCC3)C2)cc1C (stereo not drawn)	0.3	4.4	-2.1	-3.0	0.721	i	-9.8	-4.8%	0.8
O=C(COc1ccc(Br)cc1Cl)NC(=S)Nc1ccccn1	-1.8	-0.2	4.3	0.3	0.685	i	-6.7	.	5.9
CCC1CCCCN1C(=O)CCS(=O)(=O)c1ccccc1 (stereo not drawn)	-0.5	12.4	7.5	0.2	0.685	i	3.8	.	-4.3
CN(C(=S)NC(=O)c1ccccc1Br)C1CCCCC1	2.7	-33.3	-37.5	-21.2	0.677	i	98.5*	17.8%	0.3
COc1cccc(CNC(=O)C[C@@H]2C=C[C@@H](NC(=O)C3CC3)[C@@H](CO)O2)c1	0.1	0.7	-0.3	-1.1	.	i	.	.	.
COC(=O)CN(n1cnnc1)S(=O)(=O)c1ccc(C)cc1	.	.	.	.	0.726	.	0.5	22.8%	-0.6
O=C(N[C@@H]1CC[C@@H](CC(=O)N2CCCCC2)O[C@@H]1CO)c1ccc2c(c1)OCO2	-1.3	-2.4	1.0	-3.4	.	i	.	.	.
NC1=NC[C@H](CC2CCCCC2)N1CCc1cc(C(F)(F)F)cc(C(F)(F)F)c1	21.3	-56.5	-83.0	-23.6	.	i	.	-1.1%	-4.9
Cc1ccc(NC(=O)CCSc2nnc(Cc3ccccc3)o2)cc1	3.8	-0.1	-3.9	3.5	0.685	i	-1.4	-2.4%	-1.5
C[C@@H]1CN([C@@H](C)CO)C(=O)c2cc(NS(=O)(=O)c3ccccc3)ccc2O[C@@H]1CN(C)C(=O)Nc1ccccc1	-2.4	1.1	-1.2	0.2	.	i	.	.	.
O=C(C1CCN(S(=O)(=O)c2cccs2)CC1)N1CCN(c2ccccc2)CC1	.	.	.	.	0.652	.	84.2*	1.9%	-0.9
CSCCC(C(=O)Nc1c(C)cccc1C)N(Cc1ccccc1)Cc1ccccc1 (stereo not drawn)	2.3	31.1	25.9	3.0	.	i	.	.	0.5
Nc1cc(N2CCOCC2)c(Cl)cc1[N+](=O)[O-]	-2.1	-20.6*	-16.4*	1.3*	0.666	i	.	2.9%	3.1
Cc1cc(Oc2ccc(=O)[nH]n2)nc(Cl)n1	-8.7	17.4	8.1	0.2	0.661	i	.	1.8%	3.8
COc1ccc(CN2C(=O)C(CC(=O)NCc3cccs3)CC(C(=O)N3CCOCC3)=C2C)cc1 (stereo not drawn)	-1.0	12.8	14.3	4.0	.	i	.	-4.8%	-6.3
COc1ccc(-c2sc3cc(OC)c(OC)cc3c2C#CCO)cc1	-0.9	3.7	5.4	-6.0	0.728	.	.	3.0%	2.0
CN(Cc1ccccc1F)C(=O)c1sccc1-c1ccccc1	1.2	-2.2	7.2	-2.3	0.705	i	0.9	.	4.6
CCC(=O)Nc1nc(CC(=O)Nc2ccccc2)cs1	.	.	.	.	0.693	.	.	-0.2%	1.9
C[C@H]1CCCCO[C@H](CN(C)C(=O)Nc2cccc3ccccc23)[C@@H](C)CN([C@@H](C)CO)C(=O)c2cc(NC(=O)Nc3ccc(C(F)(F)F)cc3)ccc2O1	0.1	1.3	4.9	0.4	.	i	.	.	.
CN(Cc1ccccc1)C(=O)c1ccccc1NC(=O)c1ccco1	.	.	.	.	.	.	0.4	18.6%	-2.2
COc1ccc(CCNC(=O)C2CCCN(c3ncccn3)C2)cc1 (stereo not drawn)	0.0	11.0	8.3	2.0	0.659	i	-6.1	?	2.5
O=S(=O)(/N=C(/Sc1ccccc1)c1ccccc1)c1ccccc1	.	.	.	.	.	.	97.9*	-1.0%	1.8
SMILES	AF4-AF9 inh	Ecoli rRNA inh	Ecoli rRNA inh OD600	Ecoli rRNA inh RFP	E coli growth	FGF22 binding	ALR inh	Vif TR-FRET	HNF4A DNA FP
Cc1csc(NC(=O)c2cc3c(C)nn(Cc4ccccc4Cl)c3s2)n1	.	.	.	.	0.75	.	.	?	8.5
CSc1nc2ccsc2c(=O)n1-c1ccccn1	-2.4	4.7	13.6	-0.8	0.697	i	-11.3	0.0%	-2.0
Cc1ccc(S(=O)(=O)Nc2ccc3c(c2)CC(=O)N([C@@H](C)CO)C[C@H](C)[C@@H](CN(C)C)O3)cc1	-4.1	-1.8	2.5	0.4	.	i	.	.	.
Cc1cc(=O)oc(C)c1C(=O)OC(C(=O)c1ccccc1)c1ccccc1 (stereo not drawn)	-0.1	-36.9	-32.8	-7.8	0.668	i	-17.1	2.0%	-2.8
Cc1nn2c(nc1=O)SCC(c1ccccc1)=N2	.	.	.	.	0.698	.	-7.8	-1.7%	-2.8
O=S(=O)(c1ccccc1)N1CCCCN2[C@@H](CO)[C@H](c3ccc(C#CC4CCCC4)cc3)[C@@H]2C1	4.4	-1.5	-14.6	-2.3	.	i	.	.	.
COc1ccc(S(=O)(=O)N(C)C[C@@H]2Oc3ccc(NC(=O)Nc4ccc(F)cc4)cc3C(=O)N([C@H](C)CO)C[C@@H]2C)cc1	1.4	-3.1	-9.2	0.9	.	i	.	.	.
CS(=O)(=O)c1cccc(C(=O)Nc2cccc(-c3nc4ccccc4[nH]3)c2)c1	-4.4	-19.4*	-9.7*	2.1*	0.662	i	99.5*	.	1.2
Cc1nc2cc(NCc3cc([N+](=O)[O-])ccc3O)ccc2n1Cc1ccccc1	-1.1	28.1	10.4	0.8	0.712	i	2.3	5.7%	-1.8
CCn1c(CNC(=O)c2cccc(C)c2)nnc1SCC(=O)N1CCOCC1	-16.8	15.1	12.7	2.1	0.726	i	.	-2.3%	-2.6
C[C@@H]1C(c2ccccc2)=NN(c2ccc(Br)cc2)[C@H]1C(=O)N1CCOC1=O	-9.4	-1.8	-0.2	-1.7	0.718	i	.	-4.8%	0.3
CC[n+]1c(/C=C/N(C)c2ccccc2)oc2ccc(F)cc21	.	.	.	.	0.654	.	2.6	.	59.9*
COc1ccccc1N1CCN(C(c2cccs2)c2nnnn2C2CCCC2)CC1 (stereo not drawn)	1.3	-11.9	-13.6	3.2	0.694	.	-1.3	2.9%	2.7

Compound activity from PubChem BioAssay.
